Source: PubChem
PKD1 inh: blocks activity of human protein kinase D1; Q15139; PKD1 kinase fluorescence polarization assay; inhibition, %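 (about 10 µM by stock and volumes)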; 0.056% of 200,000 active;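 active = inhibition of 50% or more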;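 also: controls were vehicle for no effect and a reference inhibitor for full effect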
HSV replic up: increases HSV replication in cells. AID 1956. HSV replication augmentation in cells, fold increase. maximum fold increase. 0.005% of 220,000 active;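 active = peak rise of 1.5-fold or more in the series; tested in PC3 cells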;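 also: first round at 10 µM; read as green reporter fluorescence; hits show the peak of a series up to 25 µM; 1 = signal of infected wells without compound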
Insulin prom inh: TRM-6 insulin promoter activity inhibition | TRM-6 cells (human fetal islet line), insulin promoter-eGFP reporter, imaging; reporter expression induced with tamoxifen | inhibition, % at 2 µM | 0.9% of 130,000 active | AID 1273;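 active = inhibition above the mean plus 3 SD, with well images judged a real hit on visual review, cut at about 60% in these data, passing the limit was not always enough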
RGS16-Gao: regulators of human RGS16-Galphao interaction; O15492+P09471; 0.38% of 220,000 active; binding response (% of control), % at 10 µM; bead-based flow cytometry RGS16-Galphao binding, fluorescence; actives lie on both sides; AID 1441;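 active = below 25% or above 175%, edge rows of some plates excepted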;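 also: Galphao activated by GDP with aluminum fluoride before binding; 100% = wells without compound and 0% = beads without RGS; some results beyond the cut were filed as inactive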
GALR2 agonist: GALR2 (human) receptor agonism. GALR2-expressing cells, agonist activation read-out. 0.48% of 140,000 active. O43603. activation, %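 (tested at 5 µM)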;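 active = above mean plus 3 SD of all compounds, about 5% in these data, not always enough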;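 also: 0% = vehicle buffer wells and 100% = reference agonist at full effect; tested in CHO reporter cells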
Target sequence (O43603 whole entry, looked up): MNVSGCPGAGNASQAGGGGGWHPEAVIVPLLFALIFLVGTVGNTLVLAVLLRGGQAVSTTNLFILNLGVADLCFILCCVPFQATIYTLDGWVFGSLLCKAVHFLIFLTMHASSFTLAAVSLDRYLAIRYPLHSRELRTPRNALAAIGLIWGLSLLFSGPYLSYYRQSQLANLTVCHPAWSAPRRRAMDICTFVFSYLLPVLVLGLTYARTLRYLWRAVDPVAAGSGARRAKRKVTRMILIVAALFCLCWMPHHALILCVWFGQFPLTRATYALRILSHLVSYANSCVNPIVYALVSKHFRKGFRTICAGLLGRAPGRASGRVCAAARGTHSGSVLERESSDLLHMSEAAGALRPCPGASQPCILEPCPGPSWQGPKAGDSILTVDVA
Insulin prom inh cell count: also measured in Insulin prom inh; calls as there; normalized cell count, %; measured here: cell count, toxicity; reference of the scale not given here;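 cells exposed to compound for 48 h; stained nuclei by imaging scaled within each plate; lower means fewer cells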
HSV replic up primary fold: second read-out of HSV replic up, no call of its own (marks repeat the call); fold increase; compound at 10 µM; measured here: primary screen fold increase 10 uM; tested in PC3 cells;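 GFP signal in the first replicate; 1 = infected wells without compound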
An asterisk follows results filed as active; i = inactive; / = no result given. This is a random part of the collection; any-hit rate near 1.3%.

Labels used below – A = PKD1 inh; B = HSV replic up; C = HSV replic up primary fold; D = Insulin prom inh; E = Insulin prom inh cell count; F = RGS16-Gao; G = GALR2 agonist
Molecule: COc1cc(C)ccc1OCCOCCN(C)Cc1ccccc1
  A = 0 | B = i | C = 0.8 | D = -133 | E = 51 | F = 109 | G = -0.4
Molecule: CCCn1c(SCC(=O)c2cc(C)n(-c3ccc4c(c3)OCO4)c2C)n[nH]c1=O
  A = 5 | B = i | C = 1.3 | D = / | E = / | F = 100 | G = 0.5
Molecule: N=C1C(c2nc(-c3ccc(F)cc3)cs2)=C(O)CN1CCCN1CCOCC1
  A = -5 | B = i | C = 0.8 | D = 33 | E = 107 | F = 97 | G = -1.7
Molecule: COc1ccccc1OCCC(=O)OCC(=O)NCc1ccc(Cl)cc1
  A = -6 | B = i | C = 1 | D = / | E = / | F = 98 | G = /
Molecule: COc1cc(C(=O)Nc2cc(-c3ccccc3)[nH]n2)cc(OC)c1OC
  A = / | B = i | C = 0.64 | D = / | E = / | F = 97 | G = /
Molecule: CCOC(=O)Cn1nnnc1CN(Cc1ccc(OC)cc1)Cc1cc2cc(C)ccc2[nH]c1=O
  A = -4 | B = i | C = 0.9 | D = -32 | E = 274 | F = 83 | G = 0.0
Molecule: CCC(C)NC(=O)COc1ccc(OCc2ccccc2)cc1 (stereo not given)
  A = 12 | B = i | C = 0.94 | D = -83 | E = 101 | F = 99 | G = /
Molecule: COc1ccnc(Oc2ccc(F)cc2)c1C(=O)N/C=N/OCc1ccc(Cl)cc1Cl
  A = 14 | B = i | C = 1.1 | D = 9 | E = 121 | F = 98 | G = -0.9
Molecule: CCOC(=O)N1CCN(C(=O)/C=C/c2c(C)nn(-c3ccc(F)cc3)c2Cl)CC1
  A = -4 | B = i | C = 1 | D = 29 | E = 131 | F = 96 | G = /
Molecule: CC(C)(C)C(=O)NC(=S)Nc1cc(C(F)(F)F)ccc1N1CCOCC1
  A = -11 | B = i | C = 0.88 | D = -38 | E = 83 | F = 103 | G = 8.3
Molecule: OC(C#CCN1CCOCC1)c1cccs1 (stereo not given)
  A = -3 | B = i | C = 0.89 | D = / | E = / | F = 105 | G = -3.3
Molecule: O=C(CNC(=O)c1ccc(N2C(=O)c3ccccc3C2=O)cc1)OCC(=O)c1ccccc1
  A = -6 | B = i | C = 1 | D = 1 | E = 149 | F = 97 | G = 0.2
Molecule: N#Cc1ccccc1Cn1c(=O)n(CCC(=O)NCc2ccco2)c(=O)c2ccccc21
  A = -1 | B = i | C = 0.91 | D = -56 | E = 108 | F = 93 | G = -0.5
Molecule: C/C(=N\NC(N)=O)c1ccc(Cl)cc1
  A = -11 | B = / | C = / | D = / | E = / | F = 96 | G = -3.1
Molecule: O=C(Cn1ccc2ccccc2c1=O)NCCC(=O)NC1CCN(Cc2ccccc2)CC1
  A = -2 | B = i | C = 1 | D = 17 | E = 72 | F = 104 | G = -0.4
Molecule: O=C(C1=C[C@@H](C2CC2)C[C@@H](OCCCCO)O1)N1CCN(Cc2ccccc2)CC1
  A = -3 | B = / | C = / | D = / | E = / | F = 102 | G = /
Molecule: COc1ccccc1/C=N/NC(=O)CNC(=O)c1ccc(S(=O)(=O)N(C)C)cc1
  A = -2 | B = i | C = 0.88 | D = -11 | E = 178 | F = 107 | G = /
Molecule: Cc1noc(C)c1C(=O)OC(C)C(=O)Nc1ccc(S(=O)(=O)NC(C)C)cc1 (stereo not given)
  A = 1 | B = i | C = 0.92 | D = 27 | E = 117 | F = 112 | G = -0.5
Molecule: COc1ccc(C(=O)NCC(=O)N/N=C/C=C/c2ccccc2)cc1OC
  A = 1 | B = i | C = 0.92 | D = 39 | E = 87 | F = 103 | G = /
Molecule: Cc1ccc(-c2[nH]nc(N)c2N=Nc2ccccc2C)cc1
  A = -5 | B = i | C = 0.8 | D = / | E = / | F = 104 | G = 2.4
Molecule: O=C(CN1CCN(c2ccc(Cl)cc2)CC1)NCc1cccs1
  A = -3 | B = i | C = 0.85 | D = / | E = / | F = 101 | G = /
Molecule: O=C(CN1C(=O)c2ccccc2C1=O)Nc1ccc2c(c1)OCO2
  A = -19 | B = i | C = 1.2 | D = -72 | E = 112 | F = 101 | G = -0.8
Molecule: COCCSc1nnc(NC(=O)C2CC(=O)N(c3ccc(C)cc3)C2)s1 (stereo not given)
  A = -12 | B = i | C = 0.95 | D = / | E = / | F = 102 | G = /
Molecule: Cc1ccc2nc(N(CCN(C)C)C(=O)/C=C/c3cccs3)sc2c1
  A = -8 | B = i | C = 0.71 | D = -11 | E = 101 | F = 107 | G = 2.8
Molecule: COc1cccc(CCNC(=O)c2ccc(C#N)cc2)c1
  A = 0 | B = i | C = 1.2 | D = / | E = / | F = 99 | G = /

A stretch of the results above:
Labels used below – A = PKD1 inh; B = HSV replic up; C = HSV replic up primary fold; D = Insulin prom inh; E = Insulin prom inh cell count; F = RGS16-Gao; G = GALR2 agonist
Molecule: O=C(CNC(=O)c1ccc(N2C(=O)c3ccccc3C2=O)cc1)OCC(=O)c1ccccc1
  A = -6 | B = i | C = 1 | D = 1 | E = 149 | F = 97 | G = 0.2
Molecule: N#Cc1ccccc1Cn1c(=O)n(CCC(=O)NCc2ccco2)c(=O)c2ccccc21
  A = -1 | B = i | C = 0.91 | D = -56 | E = 108 | F = 93 | G = -0.5
Molecule: C/C(=N\NC(N)=O)c1ccc(Cl)cc1
  A = -11 | B = / | C = / | D = / | E = / | F = 96 | G = -3.1
Molecule: O=C(Cn1ccc2ccccc2c1=O)NCCC(=O)NC1CCN(Cc2ccccc2)CC1
  A = -2 | B = i | C = 1 | D = 17 | E = 72 | F = 104 | G = -0.4
Molecule: O=C(C1=C[C@@H](C2CC2)C[C@@H](OCCCCO)O1)N1CCN(Cc2ccccc2)CC1
  A = -3 | B = / | C = / | D = / | E = / | F = 102 | G = /
Molecule: COc1ccccc1/C=N/NC(=O)CNC(=O)c1ccc(S(=O)(=O)N(C)C)cc1
  A = -2 | B = i | C = 0.88 | D = -11 | E = 178 | F = 107 | G = /
Molecule: Cc1noc(C)c1C(=O)OC(C)C(=O)Nc1ccc(S(=O)(=O)NC(C)C)cc1 (stereo not given)
  A = 1 | B = i | C = 0.92 | D = 27 | E = 117 | F = 112 | G = -0.5
Molecule: COc1ccc(C(=O)NCC(=O)N/N=C/C=C/c2ccccc2)cc1OC
  A = 1 | B = i | C = 0.92 | D = 39 | E = 87 | F = 103 | G = /
Molecule: Cc1ccc(-c2[nH]nc(N)c2N=Nc2ccccc2C)cc1
  A = -5 | B = i | C = 0.8 | D = / | E = / | F = 104 | G = 2.4
Molecule: O=C(CN1CCN(c2ccc(Cl)cc2)CC1)NCc1cccs1
  A = -3 | B = i | C = 0.85 | D = / | E = / | F = 101 | G = /
Molecule: O=C(CN1C(=O)c2ccccc2C1=O)Nc1ccc2c(c1)OCO2
  A = -19 | B = i | C = 1.2 | D = -72 | E = 112 | F = 101 | G = -0.8
Molecule: COCCSc1nnc(NC(=O)C2CC(=O)N(c3ccc(C)cc3)C2)s1 (stereo not given)
  A = -12 | B = i | C = 0.95 | D = / | E = / | F = 102 | G = /
Molecule: Cc1ccc2nc(N(CCN(C)C)C(=O)/C=C/c3cccs3)sc2c1
  A = -8 | B = i | C = 0.71 | D = -11 | E = 101 | F = 107 | G = 2.8
Molecule: COc1cccc(CCNC(=O)c2ccc(C#N)cc2)c1
  A = 0 | B = i | C = 1.2 | D = / | E = / | F = 99 | G = /

Back to the main list; the 2 compounds before the break are reprinted first.
Structure	PKD1 inh	HSV replic up	HSV replic up primary fold	Insulin prom inh	Insulin prom inh cell count	RGS16-Gao	GALR2 agonist
Cc1ccc2nc(N(CCN(C)C)C(=O)/C=C/c3cccs3)sc2c1	-8	i	0.71	-11	101	107	2.8
COc1cccc(CCNC(=O)c2ccc(C#N)cc2)c1	0	i	1.2	/	/	99	/
Cc1nnn(C23CC4CC(CC(CC(=O)Nc5cccc(F)c5)(C4)C2)C3)n1	2	i	1.2	28	124	102	/
CCC(CC)COC(=O)C(C#N)c1nc2ccccc2nc1N1CCOCC1 (stereo not given)	12	i	0.92	/	/	103	-1.1
Cc1c(NC(=O)c2cc(-c3ccco3)on2)c(=O)n(-c2ccccc2)n1C	5	i	0.93	0	101	94	-2.0
CCC(CC)c1nnc(NC(=O)c2ccco2)s1	6	i	0.95	/	/	95	/
CCOC(=O)c1ccc(NC(=O)Nc2ccccn2)cc1	-1	i	0.99	/	/	96	/
N#Cc1c(Nc2ccc(F)cc2)sc(C(=O)c2ccccc2)c1N	-3	i	0.85	-56	114	104	0.9
CC1CCc2nc(NC(=O)CN3CCOCC3)sc2C1 (stereo not given)	6	i	1	-320	135	101	-2.9
COc1ccc(CNC(=O)C(c2ccncc2)N(C(=O)Cc2cccs2)c2ccccc2)cc1 (stereo not given)	-1	i	1	/	/	110	-0.6
CCOCCCNC(=O)c1ccc(N2CCCC2)c(NS(=O)(=O)c2ccc(C)cc2)c1	4	i	0.83	/	/	96	/
Cc1cc(=O)oc2cc(OCC(=O)Nc3cccc(S(=O)(=O)N(C)C)c3)ccc12	-4	i	1	5	94	101	-1.0
CCN(CC)C(=O)C(=O)c1cccn1-c1cccc(Cl)c1C#N	-8	i	0.98	25	136	272	-1.6
O=C(N/N=C/c1ccc(N2CCOCC2)s1)c1ccccc1Cl	4	i	1	24	62	98	/
